GALR2 agonist – agonists of human galanin receptor 2 (GALR2) | GALR2-expressing cells, agonist activation read-out | AID 803 | actives 0.48% (n = 140,000) | activation, %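 (tested at 5 µM)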 | O43603;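 active means above mean plus 3 SD of all compounds, about 5% in these data, not always enough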;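 further: 0% = vehicle buffer wells and 100% = reference agonist at full effect; tested in CHO reporter cells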
Target sequence (O43603 whole entry, looked up): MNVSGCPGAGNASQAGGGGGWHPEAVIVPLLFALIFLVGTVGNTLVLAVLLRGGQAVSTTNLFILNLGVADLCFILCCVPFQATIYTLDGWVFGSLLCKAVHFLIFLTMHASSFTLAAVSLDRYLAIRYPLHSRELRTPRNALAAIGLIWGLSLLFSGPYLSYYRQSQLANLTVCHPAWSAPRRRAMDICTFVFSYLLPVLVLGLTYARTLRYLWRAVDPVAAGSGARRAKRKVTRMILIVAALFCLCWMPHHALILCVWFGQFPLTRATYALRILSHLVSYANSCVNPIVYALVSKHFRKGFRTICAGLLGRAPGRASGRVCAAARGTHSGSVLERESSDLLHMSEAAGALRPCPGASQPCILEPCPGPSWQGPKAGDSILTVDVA
HSV augment – increases HSV replication in cells. HSV replication augmentation in cells, fold increase. maximum fold increase. actives 0.005% (n = 220,000);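 active means peak rise of 1.5-fold or more in the series; tested in PC3 cells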;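 further: first round at 10 µM; read as green reporter fluorescence; hits show the peak of a series up to 25 µM; 1 = signal of infected wells without compound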
PKD1 inh – blocks activity of human protein kinase D1; Q15139; PKD1 kinase fluorescence polarization assay; inhibition, %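 (about 10 µM by stock and volumes)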; actives 0.056% (n = 200,000);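 active means inhibition of 50% or more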;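 further: controls were vehicle for no effect and a reference inhibitor for full effect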
Insulin prom inh – TRM-6 insulin promoter activity inhibition. inhibition, % at 2 µM. actives 0.9% (n = 130,000). TRM-6 cells (human fetal islet line), insulin promoter-eGFP reporter, imaging; reporter expression induced with tamoxifen;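 active means inhibition above the mean plus 3 SD, with well images judged a real hit on visual review, cut at about 60% in these data, passing the limit was not always enough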
RGS16-Gao – modulates binding between human RGS16 and Galphao; bead-based flow cytometry RGS16-Galphao binding, fluorescence; actives lie on both sides; binding response (% of control), % at 10 µM; actives 0.38% (n = 220,000);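 active means below 25% or above 175%, edge rows of some plates excepted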;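 further: Galphao activated by GDP with aluminum fluoride before binding; 100% = wells without compound and 0% = beads without RGS; some results beyond the cut were filed as inactive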
Target sequence (O15492 whole entry, looked up): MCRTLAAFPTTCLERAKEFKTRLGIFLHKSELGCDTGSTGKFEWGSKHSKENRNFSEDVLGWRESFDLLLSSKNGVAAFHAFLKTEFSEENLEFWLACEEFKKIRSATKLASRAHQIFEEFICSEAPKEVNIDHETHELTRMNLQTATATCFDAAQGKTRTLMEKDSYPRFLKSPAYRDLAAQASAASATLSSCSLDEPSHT
Target sequence (P09471 whole entry, looked up): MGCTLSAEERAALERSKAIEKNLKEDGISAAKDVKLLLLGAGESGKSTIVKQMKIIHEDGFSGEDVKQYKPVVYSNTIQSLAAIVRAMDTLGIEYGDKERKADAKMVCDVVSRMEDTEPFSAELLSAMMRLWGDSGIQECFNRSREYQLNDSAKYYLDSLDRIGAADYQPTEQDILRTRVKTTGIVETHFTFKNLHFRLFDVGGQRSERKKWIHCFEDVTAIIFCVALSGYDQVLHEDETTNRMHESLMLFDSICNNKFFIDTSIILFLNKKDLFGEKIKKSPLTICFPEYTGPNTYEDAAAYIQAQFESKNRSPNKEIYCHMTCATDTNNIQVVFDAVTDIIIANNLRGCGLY
Insulin prom inh cell count – recorded beside Insulin prom inh, whose call it bears; normalized cell count, %; measured here: cell count, toxicity; reference of the scale not given here;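 cells exposed to compound for 48 h; stained nuclei by imaging scaled within each plate; lower means fewer cells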
HSV augment primary fold – further read-out of HSV augment, marked with its call; fold increase; compound at 10 µM; measured here: primary screen fold increase 10 uM; tested in PC3 cells;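 GFP signal in the first replicate; 1 = infected wells without compound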
* marks the source's active call; other numbers are inactive results.

CC(=O)c1ccc(NC(=O)Nc2ccncc2)cc1 was read as HSV augment inactive, PKD1 inh 3, Insulin prom inh 30, RGS16-Gao 99, Insulin prom inh cell count 98 and HSV augment primary fold 1.1.
For C=CCOC(=O)/C(=C/c1cccc2ccccc12)NC(=O)c1ccccc1 the results were GALR2 agonist -0.6, HSV augment inactive, PKD1 inh -1, Insulin prom inh -27, RGS16-Gao 104, Insulin prom inh cell count 109 and HSV augment primary fold 1.2.
`N#C/C(=C(/O)COc1ccccc1)c1nnc2n1CCCCC2` gave HSV augment inactive, PKD1 inh 0, RGS16-Gao 98 and HSV augment primary fold 1.
Screening O=C(CCN1C(=O)COc2ccccc21)NCc1cccnc1 returned GALR2 agonist -1.0, HSV augment inactive, PKD1 inh -11, Insulin prom inh -22, RGS16-Gao 102, Insulin prom inh cell count 31 and HSV augment primary fold 0.97.
`Brc1ccccc1/C=N/Nc1ccccn1` gave HSV augment inactive, PKD1 inh 0, RGS16-Gao 107 and HSV augment primary fold 0.93.
O=C1CC(c2ccco2)c2ccc3ccccc3c2N1 (stereo not given) was read as GALR2 agonist -1.0, HSV augment inactive, PKD1 inh -4, Insulin prom inh -6, RGS16-Gao 104, Insulin prom inh cell count 95 and HSV augment primary fold 0.81.
Screening CCn1nccc1C(=O)Nc1ccc(Cl)cc1Cl returned GALR2 agonist -2.6, HSV augment inactive, PKD1 inh -1, Insulin prom inh 38, RGS16-Gao 105, Insulin prom inh cell count 107 and HSV augment primary fold 0.93.
O=C(Nc1ccc(Cl)cc1C(=O)NCCN1CCOCC1)c1ccco1 was read as GALR2 agonist -1.1, HSV augment inactive, PKD1 inh 2, Insulin prom inh 14, RGS16-Gao 101, Insulin prom inh cell count 157 and HSV augment primary fold 0.76.
CCOc1ccc(Nc2ccnc3cc(Cl)ccc23)cc1 was read as HSV augment inactive, RGS16-Gao 85 and HSV augment primary fold 0.79.
For Cn1ncc2c(Nc3ccc(Br)cc3)nc(Nc3ccc(Br)cc3)nc21 the results were HSV augment inactive, RGS16-Gao 88 and HSV augment primary fold 0.91.
`CCOc1ccc(OCC)c(S(=O)(=O)NCCCN2CCOCC2)c1` gave GALR2 agonist -0.2, HSV augment inactive, PKD1 inh -1, Insulin prom inh 3, RGS16-Gao 106, Insulin prom inh cell count 71 and HSV augment primary fold 0.88.
Screening COc1ccc(C(=O)Nn2c(SCC(=O)NCc3ccccc3)nc3ccccc3c2=O)cc1 returned GALR2 agonist -0.9, HSV augment inactive, PKD1 inh 12, Insulin prom inh 8, RGS16-Gao 104, Insulin prom inh cell count 131 and HSV augment primary fold 1.5.
`Cc1cc2c(ncn2Cc2ccccc2)c(NS(C)(=O)=O)c1C` gave GALR2 agonist -0.1, HSV augment inactive, PKD1 inh 14, Insulin prom inh -17, RGS16-Gao 41, Insulin prom inh cell count 113 and HSV augment primary fold 0.96.
`CCOCCCNC(=O)c1cc(Sc2ccc(C)cc2)nc2ccccc12` gave GALR2 agonist -0.9, HSV augment inactive, PKD1 inh 2, Insulin prom inh 3, RGS16-Gao 116, Insulin prom inh cell count 136 and HSV augment primary fold 0.95.
COc1ccsc1C(=O)N1CCN(Cc2ccc3c(c2)OCO3)CC1 was read as GALR2 agonist -3.3, HSV augment inactive, PKD1 inh 2, Insulin prom inh -3, RGS16-Gao 99, Insulin prom inh cell count 167 and HSV augment primary fold 1.1.
CSc1ccc(CCNC(=O)CSc2ccsc2[N+](=O)[O-])cc1 was read as GALR2 agonist -3.1, HSV augment inactive, PKD1 inh 5, Insulin prom inh 11, RGS16-Gao 102, Insulin prom inh cell count 97 and HSV augment primary fold 0.99.
Screening COc1ccc(C/C(C)=N/NC(=S)Nc2ccc(C)c(C)c2)cc1 returned GALR2 agonist -2.3, HSV augment inactive, PKD1 inh 4, RGS16-Gao 103 and HSV augment primary fold 1.
Screening O=C(/C=C1\NC2(CCCC2)Cc2ccccc21)C(=O)N/N=C/c1ccccc1O returned GALR2 agonist -1.9, HSV augment inactive, PKD1 inh -7, Insulin prom inh 17, RGS16-Gao 89, Insulin prom inh cell count 144 and HSV augment primary fold 0.9.
`CC(=O)N/C(=C\c1ccc(F)cc1)C(=O)OC(C)C` gave GALR2 agonist 0.4, PKD1 inh -10 and RGS16-Gao 107.
For Fc1ccc(COc2cccc(-c3n[nH]c(=S)o3)c2)cc1 the results were HSV augment inactive, PKD1 inh 1, RGS16-Gao 113 and HSV augment primary fold 1.
For CCOC(=O)CN1N=C(/C=C/c2ccc(C(C)C)cc2)CCC1=O the results were HSV augment inactive, PKD1 inh -3, Insulin prom inh 46, RGS16-Gao 100, Insulin prom inh cell count 116 and HSV augment primary fold 0.88.
CCN(Cc1ccncc1)Cc1nc(CC2CC2)no1 was read as HSV augment inactive, PKD1 inh -2, Insulin prom inh -264, RGS16-Gao 108, Insulin prom inh cell count 71 and HSV augment primary fold 1.
For Cc1cnc(SCc2cnc(C)nc2N)nc1 the results were HSV augment inactive, PKD1 inh -10, Insulin prom inh -5, RGS16-Gao 104, Insulin prom inh cell count 118 and HSV augment primary fold 1.
For CCc1ccc(NC(=O)c2sccc2-n2cccc2)cc1 the results were GALR2 agonist -2.0, HSV augment inactive, PKD1 inh 7, Insulin prom inh -19, RGS16-Gao 101, Insulin prom inh cell count 37 and HSV augment primary fold 0.98.
CCC(CO)NC(=O)c1ccc(-c2nn(C)c(=O)c3ccccc23)cc1 (stereo not given) was read as GALR2 agonist -0.8, HSV augment inactive, PKD1 inh 4, Insulin prom inh -22, RGS16-Gao 106, Insulin prom inh cell count 58 and HSV augment primary fold 0.99.
CC(/C=C/c1ccco1)=N/NC(=O)Cc1cccs1 was read as GALR2 agonist -4.3, HSV augment inactive, PKD1 inh 4, RGS16-Gao 87 and HSV augment primary fold 1.1.
For Cc1nc2cc(C(=O)O)ccc2n1-c1ccc(F)cc1F the results were GALR2 agonist -1.1, HSV augment inactive, PKD1 inh -5, Insulin prom inh -5, RGS16-Gao 108, Insulin prom inh cell count 134 and HSV augment primary fold 0.92.
`O=c1c(-c2ccc(Br)cc2)[n+]([O-])c2ccccc2n1OCc1ccccc1` gave HSV augment inactive, RGS16-Gao 102 and HSV augment primary fold 0.88.
Screening O=C(NCc1nc2ccccc2[nH]1)c1ccc(Cl)c(S(=O)(=O)N2CCCC2)c1 returned GALR2 agonist -1.9, HSV augment inactive, PKD1 inh -2, Insulin prom inh 33, RGS16-Gao 99, Insulin prom inh cell count 162 and HSV augment primary fold 0.92.
Screening COCP(=O)(c1ccccc1)c1ccccc1 returned GALR2 agonist -2.5, HSV augment inactive, PKD1 inh 2, Insulin prom inh -35, RGS16-Gao 99, Insulin prom inh cell count 72 and HSV augment primary fold 0.93.
Screening O=C(NNC(=O)c1sccc1-n1cccc1)c1cccc(Cl)c1 returned GALR2 agonist -4.0, HSV augment inactive, PKD1 inh -3, Insulin prom inh 17, RGS16-Gao 94, Insulin prom inh cell count 143 and HSV augment primary fold 0.83.
For CCn1c(C)c(CCC(=O)O)c(=O)n2nc(-c3ccccc3OC)cc12 the results were GALR2 agonist -1.1, HSV augment inactive, PKD1 inh -4, Insulin prom inh 24, RGS16-Gao 104, Insulin prom inh cell count 102 and HSV augment primary fold 0.92.
`CCS(=O)(=O)c1ccc(N=Nc2ccc(O)c3ncccc23)c(OC)c1` gave HSV augment inactive, PKD1 inh 10, Insulin prom inh inactive, RGS16-Gao 97, Insulin prom inh cell count 22 and HSV augment primary fold 0.62.
`CCOC(=O)COc1ccc(-c2nnc(-c3ccccc3)o2)cc1` gave GALR2 agonist -1.6, HSV augment inactive, PKD1 inh -14, RGS16-Gao 103 and HSV augment primary fold 0.82.
Screening Cc1ccc(C(NC(=O)N2CCCC2)C(Cl)Cl)cc1F (stereo not given) returned HSV augment inactive, PKD1 inh -3, RGS16-Gao 102 and HSV augment primary fold 0.98.
Screening O=C(COc1ncnc2sccc12)N1CCN(C(=O)c2ccco2)CC1 returned PKD1 inh -4, Insulin prom inh 64, RGS16-Gao 107 and Insulin prom inh cell count 56.
For CC(C)c1ccc(NC(=O)COC(=O)/C=C/c2cccc(Br)c2)cc1 the results were GALR2 agonist -1.4, HSV augment inactive, PKD1 inh 9, RGS16-Gao 94 and HSV augment primary fold 1.1.
Screening COc1cc2ncnc(NCc3ccccc3Cl)c2cc1OC returned HSV augment inactive, PKD1 inh 10, RGS16-Gao 102 and HSV augment primary fold 0.82.
`C=CCNc1ccc(N2C(=O)C3CCC(C)CC3C2=O)cc1[N+](=O)[O-]` (stereo not given) gave HSV augment inactive, PKD1 inh -6, Insulin prom inh -53, RGS16-Gao 184, Insulin prom inh cell count 108 and HSV augment primary fold 0.93.
CCOc1cc(CNCCO)cc(Br)c1OCc1ccc(Cl)cc1Cl was read as GALR2 agonist 1.0, HSV augment inactive, PKD1 inh 21, Insulin prom inh -8, RGS16-Gao 101, Insulin prom inh cell count 77 and HSV augment primary fold 0.69.

Copied from above for reference:
`O=c1c(-c2ccc(Br)cc2)[n+]([O-])c2ccccc2n1OCc1ccccc1` gave HSV augment inactive, RGS16-Gao 102 and HSV augment primary fold 0.88.
Screening O=C(NCc1nc2ccccc2[nH]1)c1ccc(Cl)c(S(=O)(=O)N2CCCC2)c1 returned GALR2 agonist -1.9, HSV augment inactive, PKD1 inh -2, Insulin prom inh 33, RGS16-Gao 99, Insulin prom inh cell count 162 and HSV augment primary fold 0.92.
Screening COCP(=O)(c1ccccc1)c1ccccc1 returned GALR2 agonist -2.5, HSV augment inactive, PKD1 inh 2, Insulin prom inh -35, RGS16-Gao 99, Insulin prom inh cell count 72 and HSV augment primary fold 0.93.

Next section
For O=c1oc(-c2ccc(Br)o2)nc2ccccc12 the results were GALR2 agonist -0.7, HSV augment inactive, PKD1 inh 7, Insulin prom inh 30, RGS16-Gao 107, Insulin prom inh cell count 91 and HSV augment primary fold 1.1.
For CN(CCOc1ccc(Cl)cc1)c1ccc(S(=O)(=O)N2CCCCC2)cn1 the results were GALR2 agonist -1.5, HSV augment inactive, PKD1 inh -7, Insulin prom inh -6, RGS16-Gao 102, Insulin prom inh cell count 84 and HSV augment primary fold 0.85.
Screening Cc1cc(C)nc(N2CCCC(C(=O)Nc3nnc(C(C)(C)C)s3)C2)n1 (stereo not given) returned HSV augment inactive, PKD1 inh -6, RGS16-Gao 108 and HSV augment primary fold 0.83.
For Cc1cc2c(NCC(C)O)ncnc2s1 (stereo not given) the results were GALR2 agonist -2.1, HSV augment inactive, PKD1 inh 1, Insulin prom inh -6, RGS16-Gao 107, Insulin prom inh cell count 106 and HSV augment primary fold 1.
`Cc1ccc2nc(SCC(=O)Nc3cc(C)on3)[nH]c2c1` gave GALR2 agonist -0.7, HSV augment inactive, PKD1 inh -10, RGS16-Gao 99 and HSV augment primary fold 1.
COC(=O)c1cn[nH]c1NC(=S)Nc1ccccc1C was read as GALR2 agonist -0.1, HSV augment inactive, PKD1 inh 4, Insulin prom inh -36, RGS16-Gao 95, Insulin prom inh cell count 149 and HSV augment primary fold 1.
N/C(=N\OC(=O)Cc1ccc(Cl)cc1)c1ccncc1 was read as HSV augment inactive, PKD1 inh 6, RGS16-Gao 106 and HSV augment primary fold 0.94.
For COc1ccc(CSc2nncn2C)cc1F the results were HSV augment inactive, PKD1 inh -2, RGS16-Gao 103 and HSV augment primary fold 0.97.
Screening CC(=O)Nc1ccc(S(C)(=O)=O)c(C)c1 returned GALR2 agonist 0.0, HSV augment inactive, PKD1 inh -8, Insulin prom inh 23, RGS16-Gao 99, Insulin prom inh cell count 88 and HSV augment primary fold 1.
For CCc1ccccc1NNC(=O)c1cc(C)on1 the results were HSV augment inactive, RGS16-Gao 102 and HSV augment primary fold 1.1.
For Cc1cc(Cl)cc(Br)c1OCCCNCC(C)O (stereo not given) the results were HSV augment inactive, PKD1 inh -9, RGS16-Gao 103 and HSV augment primary fold 0.9.
`CCc1cc(-c2n[nH]c(C)c2-c2nc3ccccc3s2)c(O)cc1OCC(=O)NN` gave HSV augment inactive, PKD1 inh 2, RGS16-Gao 100 and HSV augment primary fold 0.99.
`Cc1ccc2c(c1)C(=O)CCN2` gave GALR2 agonist -1.4, HSV augment inactive, PKD1 inh 2, Insulin prom inh 7, RGS16-Gao 107, Insulin prom inh cell count 134 and HSV augment primary fold 0.89.

In the list so far, these have a COOH group.
For Cc1nc2cc(C(=O)O)ccc2n1-c1ccc(F)cc1F the results were GALR2 agonist -1.1, HSV augment inactive, PKD1 inh -5, Insulin prom inh -5, RGS16-Gao 108, Insulin prom inh cell count 134 and HSV augment primary fold 0.92.
For CCn1c(C)c(CCC(=O)O)c(=O)n2nc(-c3ccccc3OC)cc12 the results were GALR2 agonist -1.1, HSV augment inactive, PKD1 inh -4, Insulin prom inh 24, RGS16-Gao 104, Insulin prom inh cell count 102 and HSV augment primary fold 0.92.

High-throughput results deposited in PubChem by several laboratories.

The order is random, and some 1.2% of all compounds hit somewhere here.
